Assay outcomes (PubChem BioAssay)
D2 ag = Beta-Arrestin HTS for Positive Allosteric Modulators of the Human D2 Dopamine Receptor: Agonists. DiscoveRx PathHunter D2 beta-arrestin, luminescence, 90 min; 100% = 57 uM dopamine signal. D(2) dopamine receptor (Homo sapiens), P14416. 360,000 tested, 0.084% active. activation, % (test concentration not listed). AID 624465, 2012; in the data active = activation above about 40%; inconclusive = about 15% to 40%; inactive = below about 15%; note: compound concentration not given in the record; the text of the record calls up to 30% inactive
Target sequence (P14416 whole entry, looked up): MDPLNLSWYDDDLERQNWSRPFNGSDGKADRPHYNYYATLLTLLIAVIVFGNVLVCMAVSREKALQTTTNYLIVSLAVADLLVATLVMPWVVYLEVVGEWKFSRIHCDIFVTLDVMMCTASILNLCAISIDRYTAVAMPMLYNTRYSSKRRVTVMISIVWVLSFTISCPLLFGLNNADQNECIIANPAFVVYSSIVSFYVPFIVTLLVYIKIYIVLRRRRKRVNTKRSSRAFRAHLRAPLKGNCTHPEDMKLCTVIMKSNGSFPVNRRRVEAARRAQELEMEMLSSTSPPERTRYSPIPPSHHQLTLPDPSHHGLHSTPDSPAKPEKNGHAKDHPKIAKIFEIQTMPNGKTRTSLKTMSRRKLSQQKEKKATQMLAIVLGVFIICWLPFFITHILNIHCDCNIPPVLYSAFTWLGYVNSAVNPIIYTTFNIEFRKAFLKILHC
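Agonist mode: compounds alone added to overnight-plated D2 PathHunter cells for 90 min at 37 C, with 57 uM final dopamine (EC100) defining full response. Beta-arrestin recruitment detected by chemiluminescent reagent, read after 1 h at ambient temperature.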
TRPML1 ag = qHTS for Agonists of the Human Mucolipin Transient Receptor Potential 1 (TRPML1); 410,000 tested, 0.12% active; activation, % (concentration not given with the values); TRPML1-expressing cells, Ca2+ dye fluorescence, FDSS; host cell line not named in the record; reference of the full effect not given here; Mucolipin-1 (Homo sapiens), Q9GZU1; in the data active = activation above about 50%; inconclusive = about 30% to 50%; inactive = below about 30%; note: 0% is about no effect; the text of the record puts the active cut at 80%
Target sequence (Q9GZU1 whole entry, looked up): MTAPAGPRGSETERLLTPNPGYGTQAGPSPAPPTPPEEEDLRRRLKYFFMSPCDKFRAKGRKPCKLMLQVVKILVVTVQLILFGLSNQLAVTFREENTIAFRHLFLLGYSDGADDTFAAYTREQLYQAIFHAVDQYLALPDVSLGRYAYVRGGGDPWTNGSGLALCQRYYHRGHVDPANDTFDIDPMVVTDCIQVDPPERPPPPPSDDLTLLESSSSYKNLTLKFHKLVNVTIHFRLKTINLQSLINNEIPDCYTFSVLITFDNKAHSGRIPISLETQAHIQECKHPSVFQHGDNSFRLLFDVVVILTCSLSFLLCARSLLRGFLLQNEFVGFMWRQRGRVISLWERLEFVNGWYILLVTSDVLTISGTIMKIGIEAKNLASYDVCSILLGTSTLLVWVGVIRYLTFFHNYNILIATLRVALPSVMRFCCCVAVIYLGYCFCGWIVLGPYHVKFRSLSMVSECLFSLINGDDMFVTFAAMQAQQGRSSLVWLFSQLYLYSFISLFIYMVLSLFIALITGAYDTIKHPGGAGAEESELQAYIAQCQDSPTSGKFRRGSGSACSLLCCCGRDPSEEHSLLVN
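Cells: TRPML1-DL, 1X Tet inducer, ~16 h at 37 degrees C/5% CO2. Dye: ABD Ca8 no-wash + quencher, 45-90 min RT. Read: 10 s baseline, compound add, 110 s agonist phase; 54-4 EC80 (4uM final), 110 s antagonist phase.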
PINK1 modulator = A Quantitative High throughput Screen to Identify Chemical Modulators of PINK1 Expression; Potency, µM (doses to about 76.6 µM), without a hit: at the top dose activation (PINK1 increase), hits mostly activators; AID 624263, 2012; PINK1 immunofluorescence, high-content cytometry, 24 h; 410,000 tested, 0.2% active; active = well fitted activation curve with a large enough effect; inconclusive = small, poorly fitted or top-dose-only effect; inactive = flat fitted curve, though single readings scatter; cell line not stated here;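 note: potency is the fitted concentration of half-maximal effect; % of control where 0% means no effect; nearly all actives have a fitted effect of over 65% in size; a mitochondrial uncoupler was the plate control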
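PINK1 protein level read as immunofluorescence by microplate cytometer in a fixed, stained stable cell line after 24 h exposure to five compound concentrations, with CCCP as control.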
CtBP-E1A blk = qHTS Assay for Inhibitors of the CtBP/E1A Interaction; AlphaScreen GST-E1A/His-CtBP binding, 1536-well; stronger effect = lower value; control for the full effect not named in the record; CtBP / adenovirus E1A interaction (AlphaScreen); activity change, % (test concentration not listed); 340,000 tested, 0.49% active; AID 651724, 2012; in the data active means activity change below about -65%; inconclusive means about -30% to -65%; inactive means above about -30%; note: % is set by controls: 0 for no effect and ±100 for the full control effect; compound concentration not given in the record
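Homogeneous bead-based format: GST-tagged E1A captured on glutathione donor beads, His-tagged CtBP on nickel acceptor beads; compounds precede bead addition by 2 h at 37 °C.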
TRPML1 blocker = qHTS for Inhibitors of the Human Mucolipin Transient Receptor Potential 1 (TRPML1); Mucolipin-1 (Homo sapiens), Q9GZU1; TRPML1-inducible cells, Ca2+ dye fluorescence, FDSS; stronger effect = lower value; inhibition of EC80 agonist-evoked calcium signal; activity change, negative = inhibition, % (test concentration not listed); 390,000 tested, 0.02% active; AID 624415, 2012; in the data active means activity change below about -50%; inconclusive means about -30% to -50%; inactive means above about -30%;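 note: stimulus is agonist 54-4 at its EC80 concentration; % is set by controls: 0 for no effect and ±100 for the full control effect; compound concentration not given in the record; the text of the record puts the active cut at -80%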
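TRPML1-DL cells, Tet-induced overnight (~16 h, 37 °C) at 1,500 cells/well, were loaded with Ca8 no-wash dye plus quencher for 45-90 min at room temperature. Compounds were pinned during FDSS kinetic reading; agonist 54-4 at EC80 (4 uM final) then added.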
Six1-Eya2 blk = qHTS Assay for Inhibitors of the Six1/Eya2 Interaction; Homeobox protein SIX1 (Homo sapiens) + Protein phosphatase EYA2 (Homo sapiens), …; AlphaScreen GST-Six1/His-Eya2 binding, biochemical; stronger effect = lower value; control for the full effect not named in the record; activity change, % (test concentration not listed); 360,000 tested, 0.56% active; AID 651725, 2012; in the data active = activity change below about -65%; inconclusive = about -30% to -65%; inactive = above about -30%; note: % is set by controls: 0 for no effect and ±100 for the full control effect; compound concentration not given in the record
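AlphaScreen with GST-Six1 and His-Eya2 (5X mix: 250 nM and 500 nM), glutathione donor and nickel acceptor beads; buffer 50 mM Tris pH 8.0, 300 mM NaCl, 1 mM TCEP; 1 h at 37 C in the dark.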
The depositor's hits bear a star; ? = inconclusive; . = no result given; [ ] = remark or other dose. No enrichment for hits. About 1% of those tested had a hit in this group.

Order of results: D2 ag	TRPML1 ag	PINK1 modulator	CtBP-E1A blk	TRPML1 blocker	Six1-Eya2 blk
> COC(=O)Cc1ccc(NC(=O)c2ccc3c(c2)C(=O)N(Cc2ccco2)C3=O)cc1
    -4.4	0.0	2.9%	5	56	1
> CCCCCn1c(N)c(C#N)c2nc3ccccc3nc21
    -2.4	3.9	2.2%[38.3 µM]	-8	6	-11
> CCc1nc2c(OCc3ccc(C(F)(F)F)cc3)cccn2c1N(C)C(=O)C1CC1
    -6.9	-0.9	1.5%	0	.	-3
> COc1ccc(NC(=O)CN2CCC(C(N)=O)CC2)cc1
    -2.2	-0.1	0.0%	5	5	-1
> CCN1CCN(Cc2ccc(NC(=O)c3cc(NC(=O)c4ccc5n[nH]nc5c4)cc(OC)c3)cc2C(F)(F)F)CC1
    -1.0	0.2	0.9%	-2	-7	0
> COc1ccc(N2C(N)=C(C#N)C(c3cccnc3)C3=C2CC(C)(C)CC3=O)cc1 (stereo unspecified)
    -1.3	1.4	15%	8	4	9
> Cc1cc(C)c2c(CC(=O)N3CCN(c4cccc(Cl)c4)CC3)coc2c1
    .	20	2.3%	.	?	.
> Cc1ccc(S(=O)(=O)N2CCCC2C(=O)O)s1 (stereo unspecified)
    -2.1	-0.6	-0.6%	10	-4	20
> COc1cc2cc(C(=O)NCCc3ccccc3)[nH]c2cc1OC
    -1.8	-1.3	2.4%	-9	-5	-5
> COC(=O)c1ccc(NC(=O)c2cc(-c3ccccn3)nc3ccccc23)cc1
    0.2	-0.3	?	-18	8	3
> CCC1C(=O)NCCN1C(=O)c1ccc2nc(Cc3ccc(OC)cc3)oc2c1 (stereo unspecified)
    -1.9	0.8	-0.9%	9	28	5
> COc1ccc(OCC(=O)N2CCN(C(=O)c3cccc(OC)c3)CC2)cc1
    .	2.5	1.3%	.	12	.
> CN(C)c1ccc(N=C/C=C2\N(C)c3ccccc3C2(C)C)cc1
    2.1	0.4	?	?	-5	-66*
> NS(=O)(=O)c1ccc(NS(=O)(=O)c2ccc(Br)cc2)cc1
    -3.4	1.2	2.0%	6	41	10
> CC(=O)OCCCNc1cc(Sc2ccc(C)cc2)c2nonc2c1[N+](=O)[O-]
    -3.2	0.1	0.4%	-28	5	?
> O=C(NCCC1=CCCCC1)c1cc(S(=O)(=O)N2CCOCC2)c(Cl)cc1Cl
    0.9	-0.9	?	10	2	5
> Cc1cc(C)cc(NC(=O)CN(C)CC(=O)N(CC(C)C)c2c(N)n(CC(C)C)c(=O)[nH]c2=O)c1
    8.3	-0.2	0.6%	5	0	2
> O=C(COC(=O)c1nn(CCO)c(=O)c2ccccc12)Nc1ccc(Cl)c(Cl)c1
    -0.8	-0.9	2.4%	.	26	-4
> Cc1cc(C(=O)N2CCCC(CO)(Cc3ccc(F)cc3)C2)c(C)o1 (stereo unspecified)
    2.8	0.6	1.1%	-1	14	-3
> COc1ccccc1CC(=O)N1CCN(S(=O)(=O)c2ccccc2)CC1
    -2.1	0.0	-0.8%	7	-5	11
> O=C(NCCCN1CCCCCC1)c1ccc2c(Cl)c3c(nc2c1)CCCC3
    -2.2	-0.3	-3.5%	-6	50	-7
> CC(C)c1nnc(NC(=O)CCS(=O)(=O)Cc2ccccc2)s1
    7.7	0.6	15%	0	29	-1
> CC(C)(C)c1cc(NC(=O)COC(=O)C2CC2)n(-c2ccccc2)n1
    -1.8	2.2	-2.1%	4	1	3
> CC(=O)Nc1c(O)nc(SCC(=O)Nc2c(C)cccc2C)[nH]c1=O
    -1.3	2.5	1.8%[38.3 µM]	4	-18	4
> OCCNc1ncnc2c1sc1nc(N3CCOCC3)c3c(c12)CCC3
    -3.1	-0.3	-0.1%	-4	12	0
> CC(OC(=O)c1cn(-c2ccccc2)nc1-c1cccnc1)C(N)=O (stereo unspecified)
    -0.6	-0.4	0.3%	0	21	-10
> COCCn1c(SCC(=O)N2CCCc3ccccc32)nc2cccnc21
    3.3	1.1	-1.2%	10	-13	3
> CC(C)(C)C(=O)Nc1cccc(-c2cc(-c3c(Cl)cccc3Cl)no2)c1
    -0.2	2.4	-1.2%	-13	10	1
> O=C(CNc1ccccc1)c1ccc([N+](=O)[O-])cc1
    ?	0.8	3.9%	-5	-9	0
> O=C(Nc1ccc(S(=O)(=O)NC2=NCCCCC2)cc1)c1cc(F)c(F)cc1Cl
    0.8	0.6	4.2%	7	-11	5

Reprinted at random: 3 records from the list
Order of results: D2 ag	TRPML1 ag	PINK1 modulator	CtBP-E1A blk	TRPML1 blocker	Six1-Eya2 blk
> COC(=O)c1ccc(NC(=O)c2cc(-c3ccccn3)nc3ccccc23)cc1
    0.2	-0.3	?	-18	8	3
> CCC1C(=O)NCCN1C(=O)c1ccc2nc(Cc3ccc(OC)cc3)oc2c1 (stereo unspecified)
    -1.9	0.8	-0.9%	9	28	5
> COc1ccc(N2C(N)=C(C#N)C(c3cccnc3)C3=C2CC(C)(C)CC3=O)cc1 (stereo unspecified)
    -1.3	1.4	15%	8	4	9

The list continues:
Order of results: D2 ag	TRPML1 ag	PINK1 modulator	CtBP-E1A blk	TRPML1 blocker	Six1-Eya2 blk
> O=C1C(=O)N(c2ccccc2)C(c2ccccc2)C1c1ccccc1 (stereo unspecified)
    2.6	16	-5.2%	-2	-24	-4
> COc1ccc(N(CC(=O)Nc2ccccc2C(=O)NCCc2ccccc2)S(C)(=O)=O)cc1OC
    -1.3	-0.1	5.6%[38.3 µM]	1	0	-3
> CC(C)COC(=O)CCNc1n[nH]c(=O)[nH]c1=O
    -3.1	0.6	-1.3%	4	3	-2
> O=C(Cc1ccccc1[N+](=O)[O-])OCN1C(=O)c2ccccc2C1=O
    0.7	-0.3	1.1%	6	20	0
> CC1CCCN(S(=O)(=O)c2ccc(NC(=O)CNC3CCCC3)cc2)C1 (stereo unspecified)
    -3.6	0.5	-0.8%	-5	14	4
> Nc1nonc1-n1nnc(C(=O)N/N=C/c2ccncc2)c1CSc1ccccc1
    3.3	-0.2	0.7%	-7	5	5
> CCCCC(c1nc2ccccc2[nH]1)n1c(-c2ccccc2)nc2cc(C)c(C)cc21 (stereo unspecified)
    -2.9	-0.6	1.3%	31	.	21
> CCCCN(CC(=O)NCc1ccc(Cl)cc1)S(=O)(=O)c1ccc2c(c1)OCCO2
    -3.1	0.0	-0.5%	-22	-26	-24
> CS(=O)(=O)N1CCc2cc(C(=O)Nc3ccc(Br)cc3)ccc21
    -2.9	1.0	8.2%	.	?	21
> C=CCc1cc(C)ccc1OCCOCCn1ccnc1
    -2.4	0.4	0.6%	-11	9	-19
> Cc1ccc2nc(NC(=O)C3CCCN(S(=O)(=O)c4cccc5nsnc45)C3)sc2c1 (stereo unspecified)
    1.3	1.1	-0.8%	-14	15	-11
> Cc1cccc(OCC(=O)Nc2nc(-c3ccncc3)cs2)c1
    10	-0.7	8.4%	3	-3	0
> CCCC(=O)Nc1ccc(-c2nc3cc(C)c(C)cc3o2)cc1
    0.5	0.5	7.6%[38.3 µM]	4	-8	1
> CCSc1nnc(NC(=O)c2cccc(S(=O)(=O)N(C)c3ccc(C)cc3)c2)s1
    -1.4	1.9	0.6%	1	-6	0
> O=C(Nc1ccccc1C(F)(F)F)c1cccnc1
    1.0	1.8	-1.1%	6	15	6
> O=C(CC[C@H]1O[C@@H](n2ccc(=O)[nH]c2=O)[C@H](O)[C@@H]1O)NCC(c1ccccc1)c1ccccc1
    -6.7	-0.5	2.4%	3	-3	2
> CCC1(c2ccc(F)cc2)NC(=O)N(CC(=O)NC2CC2)C1=O (stereo unspecified)
    -1.9	-0.8	-1.7%	2	4	6
> Cc1ccc(-n2nc3c(c2NC(=O)c2ccco2)CS(=O)C3)cc1 (stereo unspecified)
    -1.5	-0.3	-1.1%	3	-8	2
> Clc1ccc(-n2nnc(-c3cccnc3Cl)n2)cn1
    -1.4	-0.5	-0.7%	-28	-13	10
> CCN(CC)CC(=O)Nc1ccc(C)cc1C(=O)c1ccccc1
    -1.0	1.2	1.1%	0	-8	4
> O=C(O)CC(c1cccc2ccccc12)n1cccc1 (stereo unspecified)
    -9.2	-0.1	0.5%	2	-11	-2
> CCN1C(=O)CC(C(C)C)N(C2CCCC2)c2nc(Nc3ccc(C(=O)NC4CCN(C)CC4)cc3OC)ncc21 (stereo unspecified)
    -0.7	1.3	-1.9%	-7	-4	-1
> O=C1/C(=C/c2ccc3c(c2)OCO3)CCC/C1=C\c1ccc2c(c1)OCO2
    1.8	1.8	?	-12	2	2
> CCSC1=NCCN1C(=O)c1ccc(S(=O)(=O)N(CC)CC)cc1
    -1.9	-0.3	-0.5%	0	-6	15
> COc1ccc(NC(=O)CCNS(=O)(=O)c2ccc(Br)s2)cc1
    0.7	-0.4	.	-8	-13	-8
> O=C(Nc1cc(S(=O)(=O)N2CCOCC2)ccc1N1CCOCC1)c1cccc(Cl)c1
    0.5	-0.4	0.7%	9	15	-1
> CCCCNC(=S)N(C)/N=C/c1ccccc1C(=O)O
    -4.1	0.0	-2.0%	4	-10	3
> CCS(=O)(=O)c1nc(S(=O)(=O)c2ccc(C)cc2)c(NCCCn2ccnc2)s1
    -0.7	-0.5	0.4%	2	7	-2
> CCOc1cc(/C=C/c2nc3cc(C)c(C)cc3s2)ccc1OCC(=O)N1CCOCC1
    -3.7	0.2	4.5%	13	23	8
> CCOc1cc(C)c(C(C)C)cc1S(=O)(=O)n1ccc(C)n1
    -4.5	2.3	-0.5%	0	25	0
> Cc1ccc(NC(=S)NC(=O)Cc2ccccc2)c(O)c1
    -4.7	1.7	3.8%	-2	-12	-23
